Screens: PubChem BioAssay, National Center for Advancing Translational Sciences (NCATS)
Menin MLL FP FL: displaces fluorescein MLL peptide from human menin | Fluorescence polarization, fluorescein-MLL peptide displacement from menin | FP activity change, % at 61.4 µM | 290,000 tested, under 10 active | AID 1766; inconclusive = falling polarisation curve, or a change in total fluorescence; inactive = total fluorescence flat and polarisation flat or rising; no compound was filed as active; the % refers to the polarisation; negative = inhibition;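 also: % of control where 0% means no effect; inhibitors lower the polarisation; unlabelled MLL peptide was the positive control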
Sfp inh: blocks B. subtilis Sfp PPTase activity; Q9F4F7; Biochemical Sfp PPTase activity, qHTS; Potency, µM, without a hit: max response, negative = inhibition, usual class: inhibitors; 3.5% of 310,000 active; active = well fitted inhibition curve with a large enough effect; inconclusive = small, poorly fitted or top-dose-only effect, or another doubt; inactive = no such curve, though single readings can be large or run the other way;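 also: the enzyme is Sfp with the accession as filed and its product quenches rhodamine fluorescence; potency is read from the fitted curve at half-maximal effect; 0% = enzyme reaction without inhibitor and -100% = no enzyme wells; top concentration of the series not given in the record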
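Sfp 15 nM + cpd, 15 min RT; start w/ rhodamine-CoA 5 uM, BHQ-2-YbbR 12.5 uM (final); 50 mM Hepes pH 7.6, 10 mM MgCl2, 0.01% NP-40, 0.01% BSA; read 525/598 nm at 0 and 30 min.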
gsp agonist: gsp mutant agonism | gsp mutant cells, cAMP HTRF, 30 min; control for the full effect not named in the record | Potency, µM (doses to about 76.9 µM), inactives show top-dose activation (cAMP increase), hits mostly activators | 0.13% of 340,000 active | AID 624287; active = well fitted activation curve with a large enough effect; inconclusive = small, poorly fitted or top-dose-only effect, or another doubt; inactive = no such curve, though single readings can be large or run the other way; cell line not stated here;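 also: phosphodiesterase inhibitor Ro 20-1724 added with compounds to block cAMP breakdown; potency is read from the fitted curve at half-maximal effect; nearly all actives have a fitted effect of over 60% in size; about a fifth of the inactives were tested at one dose only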
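Cells in DMEM/10% FBS with G418 were pretreated with compounds in DMSO plus […] (300 uM stock) for 30 min at 37C. cAMP was measured by HTRF (cAMP-d2 plus anti-cAMP antibody-K) after 30 min at room temperature.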
TRPV1 potentiator: potentiators of human vanilloid receptor 1 (TRPV1). TRPV1-expressing cells, Fluo-8 calcium influx, capsaicin EC20 potentiation; host cell line not named in the record; control for the full effect not named in the record. potentiation, % at 8.33 µM. 0.02% of 320,000 active. AID 540277; active means potentiation above 80%; inconclusive means 30% to 80%; inactive means below 30%; also: 0% is about no effect
Target sequence (Q8NER1 whole entry, looked up): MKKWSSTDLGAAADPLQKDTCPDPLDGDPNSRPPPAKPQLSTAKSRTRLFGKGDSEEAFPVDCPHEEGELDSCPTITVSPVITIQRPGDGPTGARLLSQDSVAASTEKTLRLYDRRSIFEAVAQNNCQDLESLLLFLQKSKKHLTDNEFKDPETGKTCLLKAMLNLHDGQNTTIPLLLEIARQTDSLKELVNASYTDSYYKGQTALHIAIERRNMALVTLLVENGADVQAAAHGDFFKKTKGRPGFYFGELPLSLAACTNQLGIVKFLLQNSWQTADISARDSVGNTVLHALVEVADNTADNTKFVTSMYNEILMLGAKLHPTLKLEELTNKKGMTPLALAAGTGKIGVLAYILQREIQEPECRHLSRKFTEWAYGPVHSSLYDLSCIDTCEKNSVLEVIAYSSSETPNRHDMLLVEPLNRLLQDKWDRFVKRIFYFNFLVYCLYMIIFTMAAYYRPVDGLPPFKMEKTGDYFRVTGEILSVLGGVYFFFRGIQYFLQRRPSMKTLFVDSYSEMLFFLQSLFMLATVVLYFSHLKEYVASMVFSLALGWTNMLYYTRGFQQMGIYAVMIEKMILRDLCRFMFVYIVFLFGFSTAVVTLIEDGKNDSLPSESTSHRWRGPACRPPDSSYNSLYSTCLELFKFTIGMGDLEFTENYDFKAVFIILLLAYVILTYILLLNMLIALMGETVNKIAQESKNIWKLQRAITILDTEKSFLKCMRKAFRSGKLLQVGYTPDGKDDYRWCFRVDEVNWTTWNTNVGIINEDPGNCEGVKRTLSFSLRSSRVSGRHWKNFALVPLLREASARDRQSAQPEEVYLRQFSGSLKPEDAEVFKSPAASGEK
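Fluo-8 calcium influx in TRPV1-expressing cells, kinetic read (ex 480/em 520 nm). Compound added and read 3 min for agonist activity, followed by capsaicin at EC20 final and 2 min further read for enhancement.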
CtBP-E1A inh: blocks the CtBP interaction with E1A | AlphaScreen GST-E1A/His-CtBP binding, 1536-well; active compounds read low; control for the full effect not named in the record | activity change, % (concentration not given with the values) | 0.49% of 340,000 active; in the data active means activity change below about -65%; inconclusive means about -30% to -65%; inactive means above about -30%; also: % is scaled to controls: 0 for no effect and ±100 for the full control effect
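Homogeneous bead-based format: GST-tagged E1A captured on glutathione donor beads, His-tagged CtBP on nickel acceptor beads; compounds precede bead addition by 2 h at 37 °C.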
ClpP mod: qHTS Assay for Activators of ClpP; AID 651965, 2013; ATP-dependent Clp protease proteolytic subunit (Bacillus subtilis (strain 168)), P80244; Potency, µM (top dose mostly 57.5 µM), inactives show at the highest dose activity change, negative = active; 1.9% of 340,000 active; purified B. subtilis ClpP, FRET peptide cleavage, 20 min; active = well fitted falling curve with a large enough effect; inconclusive = small, poorly fitted or top-dose-only effect; inactive = no such curve, though single readings can be large or run the other way; also: potency is read from the fitted curve at half-maximal effect; the source files actives as falling curves though it sought activators and does not explain the sign; nearly all actives have a fitted effect of over 65% in size; many hits overshoot -100%
Target sequence (P80244 whole entry, looked up): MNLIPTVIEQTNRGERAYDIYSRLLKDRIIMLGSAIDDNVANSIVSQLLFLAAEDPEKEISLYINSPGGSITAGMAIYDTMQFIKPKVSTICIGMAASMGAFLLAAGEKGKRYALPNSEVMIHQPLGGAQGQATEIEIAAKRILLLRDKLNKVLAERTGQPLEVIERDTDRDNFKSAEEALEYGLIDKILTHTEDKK
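Buffer: 100 mM Tris/HCl pH8, 100 mM KCl, 0.05% low protease BSA, 2.5% glycerol, 0.01% Tween-20. ClpP 10 microg/mL final; 20 min RT; delta FRET normalized to ADEP and DMSO controls.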
gsp antagonist: antagonists of gsp mutant (McCune-Albright syndrome); gsp-mutant cells, cAMP HTRF, 30 min; control for the full effect not named in the record; Potency, µM (top dose mostly 76.9 µM), inactives show top-dose activity change, negative = inhibition, most hits filed as inhibitors; 0.4% of 340,000 active; AID 624288; active = falling curve of any shape with a large fitted effect; inconclusive = falling curve, mostly with a smaller effect; inactive = flat or rising curve; cell line not stated here;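 also: intracellular cAMP measured with PDE inhibitor Ro 20-1724 present during compound exposure; potency is read from the fitted curve at half-maximal effect; % is scaled to controls: 0 for no effect and ±100 for the full control effect; nearly all actives have a fitted effect of over 65% in size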
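Cells in G418 medium, seeded 16-24 h, 37C; buffer exchange to DPBS + 1 mM CaCl2, 0.5 mM MgCl2, 0.05% BSA; cpds in DMSO + […] (300 uM stock), 30 min 37C; HTRF cAMP detection.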
Numbers without * were called inactive; ? = inconclusive; · = no result given; [ ] = remark or other dose.

SMILES	Menin MLL FP FL	Sfp inh	gsp agonist	TRPV1 potentiator	CtBP-E1A inh	ClpP mod	gsp antagonist
CC(=O)c1ccc(NC(=S)Nc2cccc(S(=O)(=O)Nc3c(C)n(C)n(-c4ccccc4)c3=O)c2)cc1	-1.1	22µM*	20%[15.4 µM]	-8	14	·	-25%
COc1ccc(NC(=O)c2cc(-c3ccccc3)nc3c2cnn3C(C)C)cc1	·	·	17%	-8	-29	92%	28µM*
CCOc1ccc(S(=O)(=O)NCc2ccccn2)cc1	-1.8	-23%	-48%[inhibitor]	2	3	0.1%	-2%
CC(Oc1ccccc1Cl)C(=O)Nc1ccc(S(=O)(=O)N2CCOCC2)cc1 (stereo not drawn)	·	·	0%[15.4 µM]	·	2	·	12%
Cc1ccc(-n2c(=S)sc3c(=O)n(-c4ccccc4C)c(SCC(=O)O)nc32)cc1C	7.9	12%	0%	-2	·	1.1%	-18%
COc1ccc(CN2C(=O)CSC2c2ccncc2)cc1 (stereo not drawn)	-0.6	2%	-11%[15.4 µM]	-1	2	·	-5%
CC(=O)Nc1ccc(S(=O)(=O)Nc2nc3ccccc3nc2Nc2ccc(O)cc2)cc1	26	19%	?	-3	10	-0.2%	-17%
Cc1ccc(NC(=O)CC2CCCC2)c(Br)c1	·	6%	2%	3	12	·	-2%
CCNC(=O)COc1ccc(Br)cc1Cl	4.4	19%	16%	·	-1	-0.4%	-13%
COc1ccc(NC(=S)Nc2cccc3cnccc23)cc1	·	?	-4%	4	0	-1.0%	-5%
O=C(COc1ccccc1Br)NCCC1=CCCCC1	·	·	-1%	-15	·	2.2%	-3%
Cc1ccc(NS(=O)(=O)c2ccc(Cl)s2)cc1S(=O)(=O)N(C)C	·	2%	9%	-17	-7	-1.5%	-29%
CC/C(C)=C1\SC(N2CCOCC2)=NC1=O	6.5	14%	1%	3	-1	-15%	3%
COc1ccccc1Nc1nc(N)nc(CN(C)C2CCCCC2)n1	-1.2	?	27%	-3	-22	-5.9%	-5%
O=C(COc1ccc([N+](=O)[O-])cc1Cl)NCCN1C(=O)CSC1=O	·	·	43%	·	·	-0.4%	5%
CCn1cc(C(=O)NCCC(C)C)c(=O)c2cc(F)c(N3CCN(C(=O)c4ccco4)CC3)cc21	·	2%	-37%[inhibitor]	6	·	?	-6%
C/C(=N\NC(=O)Cc1c(C)[nH][nH]c1=O)c1ccc(Cl)c(Cl)c1	1.4	15%	?	?	3	-1.0%	9%
CCN1CCN(C(=O)CN2C(=O)c3cccc4cccc2c34)CC1	2.9	11%	-20%	-25	-4	-2.6%	3%
COc1ccc(N2CCN(C(=O)CNC(=O)Cn3cnc4sc(C)c(C)c4c3=O)CC2)cc1	-1.3	1%	36%	14	2	-5.2%	0%
CCOC(=O)c1ccc(NC(=O)CN(c2ccc(C)cc2)S(=O)(=O)c2c(C)n[nH]c2C)cc1	3.0	3%	-37%[inhibitor]	-9	-3	0.1%	?
COCCN1C(=O)C(=O)/C(=C(/O)c2ccc(S(=O)(=O)N3CCOCC3)cc2)C1c1cccc(O)c1 (stereo not drawn)	-2.0	0%	-85%[inhibitor]	2	5	-0.4%	11%
CCNC(=O)N(CC)C[C@H]1N[C@@](CC)(C(=O)OC)[C@H]2C(=O)N(Cc3ccccc3)C(=O)[C@@H]12	·	·	·	·	3	0.3%	-4%
O=C(NC(=S)Nc1nc(-c2ccc(Br)cc2)cs1)c1cccnc1	·	-3%	-18%	6	2	2.1%	-1%
COc1ccc(CSc2nnc(SCc3ccc([N+](=O)[O-])cc3)s2)cc1	-0.2	5%	2%	3	3	0.4%	0%
Cc1ccc(S(=O)(=O)N2CCN(S(=O)(=O)N3CCCCC3)CC2)cc1	-1.3	13%	12%	5	6	-0.9%	19%
CCCCN(C(=O)NC(=O)Nc1ccccc1OC)S(C)(=O)=O	-5.0	7%	-14%	11	0	-0.8%	3%
Cc1ccccc1NC(=O)c1ccc(COc2ccc3c(C)cc(=O)oc3c2)cc1	0.7	-9%	?	-3	8	-26%	7%
CC(=O)N1CCc2cc(S(=O)(=O)CCC(=O)N3CCC(C)CC3)ccc21	-1.0	-2%	0%	?	-2	1.4%	5%
CCOC(=O)c1c(CNCCN(CC)CC)n(C)c2cc(Br)c(OC)cc12	0.1	1%	?	6	6	-4.3%	5%
CCc1ccccc1NC(=O)CN(C1CCCCC1)S(C)(=O)=O	-2.5	10%	-1%[15.4 µM]	10	2	0.0%	7%
CC1=C(C(=O)Nc2ccc(CC(=O)NCc3ccc(OC(C)C)cc3)cc2)SCCO1	·	-1%	-31%[inhibitor]	-15	·	0.8%	12%
Cc1nn(-c2cc(N(S(C)(=O)=O)S(C)(=O)=O)c(Cl)cc2Cl)c(=O)n1C	8.6	3%	-9%	-4	-5	1.0%	11%
O=C(Cc1c(F)cccc1Cl)Nc1cc(S(=O)(=O)N2CCOCC2)ccc1N1CCOCC1	·	·	0%	-8	6	-2.4%	1%
O=C(NCc1ccccc1Cl)C1CCCN(c2ncnc3c2nc2n3CCCCC2)C1 (stereo not drawn)	5.0	11%	?	-9	-19	·	-3%
Cc1cc(C)n(/C(=C\N(C)C)C(=O)c2ccc(Cl)cc2)n1	-1.9	12%	?	2	10	·	2%
O=C1CC(c2ccccc2)c2ccc(O)cc2O1 (stereo not drawn)	2.8	8%	-4%	8	-1	1.3%	4%
COc1ccc(-c2cc(C(=O)NCCN3CCOCC3)no2)cc1OC	4.2	22%	-21%	-2	3	·	5%
O=C(CCC(=O)N(CC(=O)NC1CCCCC1)Cc1ccco1)Nc1nccs1	2.2	19%	-2%	-16	1	2.5%	-4%[15.4 µM]
CCOC(=O)c1cnc2c(-c3ccccc3)c(-c3ccccc3)nn2c1C	-5.8	-5%	-51%[inhibitor]	-17	15	·	-2%
COc1ccc(NC(=O)CSc2nc3nc(C)cc(C)c3c(=O)[nH]2)cc1	·	-5%	-13%[15.4 µM]	16	-7	·	1%
Fc1ccccc1NC(=S)N1CCN(Cc2ccccc2)CC1	4.4	6%	-54%[inhibitor]	9	3	-19%	5%
Cc1noc(NS(=O)(=O)c2ccc(NC(=O)CSc3nc4c(cc3C#N)CCC4)cc2)c1C	0.9	50µM*	?	22	-16	1.8%	9%
O=C(CO/N=C/c1ccc(OC(F)F)cc1)NC1CCCCC1	-10	14%	-24%	4	·	-0.7%	0%
Cc1ccc(CS(=O)(=O)c2ccc(C(=O)N3CCCCC3)cc2[N+](=O)[O-])cc1	-4.6	14%	-3%[15.4 µM]	-9	-4	-23%	-3%
COc1ccc(CN2C(=O)C(CC(C)C)Nc3ncnc(N4CCCCC4)c32)cc1 (stereo not drawn)	·	·	-43%[inhibitor]	28	-7	-0.7%	-5%
CCc1nc(SCC(=O)N2CC(=O)Nc3ccccc32)c2c(C)c(C)sc2n1	0.8	11%	16%	8	5	-1.3%	-7%
O=C(c1ccc2c(=O)n(Cc3ccc4c(c3)OCO4)c(=S)[nH]c2c1)N1CCCCC1	3.5	21%	0%	12	8	-0.4%	2%
O=C(N/C=C\c1ccccc1)NCc1ccc(Cl)cc1	4.2	24%	2%	-2	-2	-1.6%	-2%
COCCn1c(SCC(=O)Nc2cc(C)cc(C)c2)nnc1C(C)C	1.5	6%	-15%	4	-4	-4.0%	2%
CCOc1ccc(C(=O)NCC(=O)N2CCN(Cc3ccccc3)CC2)cc1	·	·	-10%[15.4 µM]	·	2	·	-10%
O=C(c1ccc(S(=O)(=O)Cc2cc(F)ccc2F)c([N+](=O)[O-])c1)N1CCCCC1	-1.3	-6%	-6%	-21	-7	-1.3%	-11%
CC(/C=N/NC(=O)c1cc(-c2cccnc2)nc2c1c(C)nn2-c1ccccc1)=C\c1ccccc1	4.8	23%	-6%	-2	-3	?	-4%
S=C1SCN(Cc2cccnc2)CN1Cc1cccnc1	-6.2	14µM*	11%[15.4 µM]	3	1	·	-7%
COc1cccc(-n2c([S-])c(C(=O)Nc3ccc(S(=O)(=O)N4CCOCC4)cc3)[n+]3cc(C(N)=O)ccc23)c1	-9.6	0%	8%[15.4 µM]	-3	-16	·	-3%
CC(NC(=O)c1ccccc1N)c1ccccc1 (stereo not drawn)	-3.2	16%	1%[15.4 µM]	6	11	·	7%
O=C(NCc1ccccc1)/C(=C/c1ccc([N+](=O)[O-])cc1)NC(=O)c1ccco1	-1.7	8%	10%[15.4 µM]	-10	2	·	-1%
COc1ccc(-c2[nH]ncc2/C=N\NC(=O)c2cccs2)cc1OC	·	4%	-3%	9	?	-1.9%	4%
COc1ccc(NC(=O)N(C)C[C@H]2Oc3c(NC(=O)NC(C)C)cccc3C(=O)N([C@H](C)CO)C[C@@H]2C)cc1	·	·	·	·	-13	-3.3%	6%
CC1CC(c2ccccc2)n2nc(NC(=O)c3cccs3)nc2N1 (stereo not drawn)	3.8	1%	12%	2	-1	-4.0%	-12%
O=C(CSc1nccc2ccccc12)N1CCN(c2ccccn2)CC1	0.2	-3%	-5%	-4	-11	-4.6%	6%

The list continues:
SMILES	Menin MLL FP FL	Sfp inh	gsp agonist	TRPV1 potentiator	CtBP-E1A inh	ClpP mod	gsp antagonist
CCN(CC(=O)Nc1ccc2c(c1)OCCO2)C(=O)c1cccc(S(=O)(=O)N2CCOCC2)c1	1.6	8%	-40%	23	-7	-0.4%	5%
CC(=O)Oc1ccc(N2C(=O)C3C4C=CC(C5CC45)C3C2=O)cc1[N+](=O)[O-] (stereo not drawn)	2.5	56µM*	41%[15.4 µM]	-6	-9	-2.0%	-12%
COc1cccc(C2CC(=O)Nc3cc(OC)c(OC)c(OC)c32)c1OC (stereo not drawn)	1.9	6%	-31%[inhibitor]	1	1	-0.6%	-11%[15.4 µM]
CCOC(=O)c1nnn(-c2nonc2-n2cccc2)c1C	-0.2	10%	17%	2	1	1.1%	-7%
Cc1nc2ccccc2n1/N=C/c1ccc([N+](=O)[O-])s1	2.5	4%	7%[15.4 µM]	15	4	-1.3%	-4%

An excerpt from above, showing only Sfp inh and gsp antagonist.
| SMILES | Sfp inh | gsp antagonist |
| --- | --- | --- |
| CC(=O)Oc1ccc(N2C(=O)C3C4C=CC(C5CC45)C3C2=O)cc1[N+](=O)[O-] (stereo not drawn) | 56µM* | -12% |
| COc1cccc(C2CC(=O)Nc3cc(OC)c(OC)c(OC)c32)c1OC (stereo not drawn) | 6% | -11%[15.4 µM] |
